SARS PLpro yeast = inhibitors of SARS-CoV papain-like protease in yeast; S. cerevisiae expressing SARS-CoV PLpro, growth rescue; control for the full effect not named in the record; Potency, µM (highest dose often 32.9 µM), without a hit: top-dose activity, positive = growth rescue; 330,000 tested, 0.19% active; AID 485353; also: 0% is about no effect; nearly all actives have a fitted effect of over 55% in size; growth read by luminescence after 48 h
Cruzain inh Det = blocks cruzain activity in presence of Triton detergent; purified cruzain, Z-FR-AMC fluorescence, 0.01% Triton; P25779; AID 1478; 200,000 tested, 0.43% active; Potency, µM, for inactives: max response, negative = inhibition, most hits filed as inhibitors; active = well fitted curve in the direction sought with a large enough effect; inconclusive = small, poorly fitted or top-dose-only effect, or another doubt; inactive = no such curve, though single readings can be large; an effect the other way counts as inactive or inconclusive;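 also: plate controls were neutral wells for no effect and buffer without enzyme for full effect; nearly all actives have a fitted effect of over 40% in size; top concentration of the series not given in the record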
Target sequence (P25779 123-467 limits assumed): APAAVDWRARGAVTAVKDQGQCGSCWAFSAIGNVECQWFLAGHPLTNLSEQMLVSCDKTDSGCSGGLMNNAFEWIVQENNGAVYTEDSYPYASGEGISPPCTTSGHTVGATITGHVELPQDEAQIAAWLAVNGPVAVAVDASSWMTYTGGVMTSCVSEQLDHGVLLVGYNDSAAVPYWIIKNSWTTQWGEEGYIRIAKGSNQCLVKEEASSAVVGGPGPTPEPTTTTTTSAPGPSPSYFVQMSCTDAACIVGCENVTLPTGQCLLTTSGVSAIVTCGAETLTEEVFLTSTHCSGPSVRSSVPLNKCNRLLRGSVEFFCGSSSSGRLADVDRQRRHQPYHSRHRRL
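15 min RT preincubation of 1.5 nM cruzain with compound, then 2 uM Z-FR-AMC added; kinetic AMC fluorescence, 60 s delta. Triton X-100 0.01%, pH 5.5.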
Marburg entry inh = Marburg virus entry inhibition. 300,000 tested, 1.8% active. Potency, µM (doses to about 37.8 µM), for the others: top-dose activity change, negative = inhibition, usual class: inhibitors. AID 540276. Marburg virus pseudotyped entry inhibition, cell reporter; control for the full effect not named in the record; about a third of the inactives were read at about 46 µM; active = well fitted inhibition curve with a large enough effect; inconclusive = small, poorly fitted or top-dose-only effect, or effect the other way; inactive = flat fitted curve, though single readings scatter; tested in HEK293 cells; about a fifth of its hits are not listed in these tables; also: % is scaled to controls: 0 for no effect and ±100 for the full control effect; luciferase read-out
LASV entry inh = inhibitors of Lassa virus binding or cell entry; Lassa virus pseudotype entry inhibition, cell reporter; control for the full effect not named in the record; 300,000 tested, 1.2% active; Potency, µM (series often up to 37.9 µM), inactives show at the highest dose activity change, negative = inhibition, most hits filed as inhibitors; AID 540256; active means well fitted inhibition curve with a large enough effect; inconclusive means small, poorly fitted or top-dose-only effect, or effect the other way; inactive means flat fitted curve, though single readings scatter; tested in HEK293 cells; also: % is scaled to controls: 0 for no effect and ±100 for the full control effect; nearly all actives have a fitted effect of over 50% in size; luciferase read-out
StopGo reporter = FMDV 2A StopGo reporter, luciferase signal; AID 1159524; human cells with a luciferase reporter of 2A StopGo recoding; control for the full effect not named in the record; 410,000 tested, 1.2% active; Potency, µM (highest dose often 57.9 µM), inactives show at the top dose signal change, negative = less light; active = well fitted falling curve with a large enough effect; inconclusive = small, poorly fitted or top-dose-only effect; inactive = no such curve, though single readings can be large or run the other way; tested in HEK293T cells; also: % is scaled to controls: 0 for no effect and ±100 for the full control effect; nearly all actives have a fitted effect of over 45% in size; luciferase light after 4 h
Cruzain inh noDet = blocks cruzain activity in detergent-free assay | P25779 | Potency, µM, without a hit: max response, negative = inhibition, actives largely listed as inhibitors | purified cruzain, Z-FR-AMC fluorescence, no detergent | 200,000 tested, 2.3% active; active = well fitted curve in the direction sought with a large enough effect; inconclusive = small, poorly fitted or top-dose-only effect, or another doubt; inactive = no such curve, though single readings can be large; an effect the other way counts as inactive or inconclusive;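 also: plate controls were enzyme without inhibitor for no effect and buffer without enzyme for full effect; nearly all actives have a fitted effect of over 40% in size; top concentration of the series not given in the record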
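Purified cruzain at 1.5 nM, pre-incubated 15 min with compound at room temperature in 100 mM sodium acetate pH 5.5, 5 mM DTT, 0.00005% Triton X-100. Reaction started with 2 uM Z-FR-AMC; AMC fluorescence increase over 60 s gives rate.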
RE007 growth inh = less growth of the S. pombe RE007 Vpr strain; 360,000 tested, 0.21% active; AID 651644; Potency, µM (series often up to 92.2 µM), for inactives: at the top dose activity change, negative = less growth; S. pombe RE007 Vpr strain, BacTiter-Glo ATP luminescence, 24 h; control for the full effect not named in the record; active = well fitted falling curve with a large enough effect; inconclusive = small, poorly fitted or top-dose-only effect; inactive = no such curve, though single readings can be large or run the other way;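 also: % is scaled to controls: 0 for no effect and ±100 for the full control effect; nearly all actives have a fitted effect of over 50% in size; the assay follows cell death caused by Vpr and the record does not say whether a fall means rescue or toxicity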
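Fission yeast strain RE007, carrying one chromosomally integrated HIV-1 vpr copy, was seeded at OD 0.01 in PMG+AL medium with 23 nL pinned compound. After 24 h at 30 °C and 99% humidity, viability was read by BacTiter-Glo luminescence.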
NS1 inh = inhibitors of influenza NS1 protein function; S. cerevisiae slowed by influenza A NS1, growth recovery by OD600; Potency, µM (series often up to 46.1 µM), inactives show top-dose activity, positive = more growth; 270,000 tested, 0.4% active; also: actives are rising curves; nearly all actives have a fitted effect of over 50% in size
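Compounds were scored for reversing the slow growth caused by influenza A NS1 in S. cerevisiae, measured by optical density at 600 nm. Assay medium contained 2% galactose at pH 6.0; NS1-free yeast of the same strain were the positive control.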
* = called active by the depositor; u = inconclusive; x = no result given; & = joins results of further samples; [ ] = dose if it differs, or a comment. Unless noted, calls follow the shape of the dose curve; as a rule, active means well fitted rising curve with a large enough effect; inconclusive means small, poorly fitted or top-dose-only effect; inactive means no such curve, though single readings can be large or run the other way. Potency is read from the fitted curve at half-maximal effect.

SMILES	SARS PLpro yeast	Cruzain inh Det	Marburg entry inh	LASV entry inh	StopGo reporter	Cruzain inh noDet	RE007 growth inh	NS1 inh
CC(=O)Nc1ccc(NC(=O)C(C)OC(=O)C2CCCCC2)cc1 (configuration not stated)	0%	x	u	0%	-19%	x	-14%	x
CN(C)Cc1c(C(=O)N/N=C/c2ccc(-c3ccccc3)cc2)nnn1-c1nonc1N	3%	x	x	x	u	x	-4%	4%
C#CCn1c(COc2ccccc2C)nc2ccccc21	x	-2.3%	u	27%[46.1 µM]	70%[activator]	-2%	x	x
c1ccc2c(c1)CC1(CCCC1)N=C2N1CCOCC1	0%	x	x	x	-18%	x	-5%	0%
COc1ccc(N(C(=O)/C=C\C(=O)Nc2ccc(C)cc2)C(C(=O)NCc2ccco2)c2ccc(C)cc2)cc1 (configuration not stated)	x	0.9%	x	u	-10%	-17%	x	x
CC1CN(C(=O)Cn2c(C(F)(F)F)nc3ccccc32)CC(C)O1 (configuration not stated)	u	11%	10%[46.1 µM]	-18%	-13%	2%	7%	0%
COCC(C)N1C(=O)Cc2c1nc(N)c1c(N)nc(N3CCN(c4ccccc4F)CC3)c(C#N)c21 (configuration not stated)	-2%	x	16µM*	u	32µM*	x	22%	x
O=C(/C=C/c1cnc2ccccc2n1)NC12CC3CC(CC(C3)C1)C2	-24%	-3.6%	-28%	14%	-20%	-29%	0%	-7%
Cc1cccc(-n2c(SCC(=O)N3CC(=O)Nc4ccccc43)nc3ccccc3c2=O)c1	1%	x	-26%	u	-2%	x	-11%	2%
CCc1nccn1CCC(=O)NC1CC(C)(C)Cc2c1cnn2-c1cccc(F)c1 (configuration not stated)	8%	x	-11%	2%	-6%	x	-19%	13%
CN(Cc1nccs1)C(=O)c1ccc(OC2CCN(Cc3ccccn3)CC2)cc1	-4%	x	26%	15%	-1%	x	4%	8%
COc1ccc(NC(=S)N2CCN(c3ccc([N+](=O)[O-])cc3)CC2)cc1OC	-1%	x	-13%[46.1 µM]	-12%	u	x	-11%	5%
Cn1c(SCc2nc(-c3ccc(Cl)cc3)no2)nnc1-c1cccs1	-3%	-0.2%	14%	10%	0%	1%	-1%	12%
COc1ccc(C(=O)Nc2ccccc2C(=O)NCc2ccco2)cc1OC	0%	-3.5%	-20%	u	-33%	3%	-3%	-51%
COc1cccc(NC(=S)NNC(=O)C(C)n2nc(C)c([N+](=O)[O-])c2C)c1 (configuration not stated)	0%	2.7%	1%	12%	19%	-2%	-4%	14%
CCS(=O)(=O)N1CCCC(C(=O)NCCc2ccc(C)cc2)C1 (configuration not stated)	11%	0.4%	14%	-13%	-11%	-2%	-15%	2%
COc1ccccc1C1NC(c2ccccc2OC)C(C)C(=O)C1C (configuration not stated)	-7%	1.4%	u	-6%	-13%	-5%	0%	-11%
CCOc1ccc(N(CC(=O)NC2CC3CCC2C3)S(=O)(=O)c2ccc(C)cc2)cc1 (configuration not stated)	-8%	x	x	x	-16%	x	9%	11%
CC1(C)Cc2c(c(-c3ccco3)nc3n[nH]c(N)c23)CO1	6%	-4.9%	0%	-4%	10%	-1%	-7%	19%
CCOc1ccc(-n2nc3ccc(NC(=O)COc4ccc(OC)cc4)cc3n2)cc1	x	0.8%	x	26%[46.1 µM]	6%	-12%	x	x
COC(=O)c1ccc(C)c(NC(=O)CCSc2ccc(Cl)cc2)c1	10%	-1.5%	u	-4%	u	0%	-5%	u
COc1ccc(CC(=O)Nc2nc(-c3cccnc3)cs2)cc1	-10%	2.5%	-5%	u	-20%	u	0%	7%
Cc1ccc(CN2CCN(Cc3cn(C(C)C)c4ccccc34)CC2CCO)o1 (configuration not stated)	-1%	x	u	-4%[46.1 µM]	-6%	x	-21%	1%
CC(C)(C)OC(=O)N1CCC(c2c(C(=O)NCc3cccc(Cl)c3)cnn2-c2ccc(F)cc2)CC1	x	-9.5%	x	u	-10%	-3%	x	x
Cc1cccc(NC(=S)NCCc2ccccn2)c1	0%	x	11%	14%	0%	x	0%	-1%
COc1ccc(C(CCNCc2ccc(N(C)C)cc2)c2ccccc2OC)cc1 (configuration not stated)	-2%	x	u	16µM*	u	x	-3%	-1%
COc1ccc(N(CC(=O)NC2CC3CCC2C3)S(=O)(=O)c2ccc(C)c([N+](=O)[O-])c2)cc1 (configuration not stated)	-1%	x	u	-17%[46.1 µM]	-6%	x	2%	5%
Cc1ccc2nc(-c3ccc(O)cc3)oc2c1	-12%	x	5.6µM*	u	13µM*	x	-24%	-4%
CCn1cc(C(=O)NCc2ccccc2)c(=O)c2cc(S(=O)(=O)N3CCCCC3)ccc21	x	-0.3%	-2%[46.1 µM]	-3%[46.1 µM]	-16%	0%	x	x
CCCc1cc(=O)oc2cc3oc(C)c(C)c3cc12	11%	-9.6%	5%	5%	-6%	0%	2%	-9%
Cc1ccc(C(=O)Nc2scc(-c3ccccc3)c2C(=O)O)cc1	x	x	u	u	-25%	x	6%	x
O=C(Nc1cnccn1)Nc1ccccc1Cl	2%	x	12%[46.1 µM]	10%	51%[activator]	x	-12%	x
CCCNC(=O)CN1CCN(c2ncc(NC(=O)c3ccc(Cl)cc3)cc2C(=O)O)CC1	x	0.4%	x	11%[46.1 µM]	-17%	-5%	x	x
CC1CCCN(c2ccc(C(=O)Nc3nnc(C4CC4)s3)cc2[N+](=O)[O-])C1 (configuration not stated)	-13%	-8.3%	16%	4%	-14%	u	4%	25%
O=C(O)Cc1sc(Nc2ccccc2)nc1-c1ccc(Cl)cc1	-2%	x	18%[46.1 µM]	24%	63%[activator]	x	-2%	x
Cc1ccc(C(=O)Nc2ccc(S(=O)(=O)N3CCCC3)cc2)cc1	3%	x	u	-10%[46.1 µM]	19%	x	7%	-6%
CC(NC(=O)C(C(=O)c1cccc([N+](=O)[O-])c1)n1cc(Cl)ccc1=O)c1ccccc1 (configuration not stated)	u	-3.5%	-1%	u	-9%	0%	25%	4%
Cc1ccc(S(=O)(=O)NCCC(=O)N2CCCC(C)C2)cc1 (configuration not stated)	1%	x	-1%[46.1 µM]	-2%	-20%	x	16%	x
Cc1cc(C)cc(C(=O)/C=C2\NC(=O)CS2)c1	2%	-5.5%	13%	3%	u	0%	-18%	-73%
COc1ccc(OC)c(C2CC(=O)N(c3cccc(C)c3)C3=C2C(=O)OC3)c1 (configuration not stated)	x	-1.5%	-3%[46.1 µM]	5%[46.1 µM]	-20%	-7%	x	x
CN(CC(O)CN)CC(O)CN1CCCCC1 (configuration not stated)	-4%	3.6%	16%	-13%	-15%	-1%	4%	1%
COc1ccc(N2C(=O)CSC2c2cccc(F)c2)cc1 (configuration not stated)	4%	x	-24%[46.1 µM]	-30%[46.1 µM]	-7%	x	0%	2%
Cc1ccc(N2C(=O)c3ccc(C(=O)O)cc3C2=O)c(C)c1	-4%	4.1%	11%	9%	-16%	-9%	13%	11%
O=C(O)[C@@H]1C[C@@H](C(=O)O)N1	x	5.8%&0.7%	u	3%	-3%&-18%	7%&1%	x	-11%
COc1cc(-c2noc(-c3ccccc3C(=O)NCc3ccco3)n2)cc(OC)c1OC	-2%	-5.9%	u	u	u	-5%	1%	-23%
CCOC(=O)c1c(NC(=O)CSc2n[nH]c(CNc3ccccc3)n2)sc(C)c1C	2%	0.6%	-26%	-15%	-14%	-13%	-4%	2%
CCCCN(C)CCNC(=O)CCn1nc(-c2ccc(Cl)cc2)ccc1=O	-1%	x	x	x	0%	x	-6%	7%
COC(C/C=C/C(=O)COCc1ccccc1)OC	-4%	x	x	x	-4%	x	-13%	-61%
CC(=O)Nc1ccc(Nc2ccc3nonc3c2[N+](=O)[O-])cc1	5%	x	u	1%[46.1 µM]	-21%	x	-21%	x
CCc1ccc(CNC(=O)c2ccc(CS(=O)(=O)Cc3cccc(C)c3)o2)cc1	x	-0.9%	x	-24%[46.1 µM]	u	u	x	x
COc1ccccc1-n1nnnc1SCC(=O)Nc1ccccn1	8%	2.3%	2%	u	-9%	7%	-13%	8%
CCOc1ccc(NC(=O)Nc2cc3c(cc2N2CCCCC2)n(C)c(=O)n3C)cc1	x	-7.2%	-28%[46.1 µM]	-18%[46.1 µM]	u	-5%	x	x
COc1cc(OC)cc(C(=O)NCCSCc2ccc(Cl)cc2)c1	8%	x	u	15%[46.1 µM]	-7%	x	5%	-22%
O=C(Nc1cccc(-n2cnnn2)c1)c1cccc(Cl)c1	-4%	x	x	x	-19%	x	5%	7%
COc1cc2c(cc1OC)CN(C(=O)CCCN1C(=O)c3ccccc3C1=O)CC2	-1%	1.7%	7%	1%	u	6%	-10%	-3%
CN(C)c1ccc(NC(=O)CC(NCc2cccnc2)C(=O)O)cc1 (configuration not stated)	x	-0.7%	3%[46.1 µM]	3%[46.1 µM]	7%	-8%	x	x
CC(=O)Nc1ccc2c(CSc3nnc(-c4cccnc4)n3-c3ccc(C)cc3C)cc(=O)oc2c1	-15%	-7.5%	-14%	u	-11%	u	-8%	-30%
CCC(=O)N1c2ccccc2[C@@H](N(C(C)=O)c2ccccc2)C[C@H]1C	3%	9.2%	-2%	u	-6%	3%	35%	-2%
CCCCOc1ccc(-c2ncc([N+](=O)[O-])cn2)cc1	1%	x	x	x	0%	x	9%	7%
COCCNc1c(-c2ccc(O)cc2)nc2ccc(Cl)cn12	3%	-7.4%	-7%	11%	0%	-5%	12%	4%
COc1ccc2cc(CCC(C)=O)ccc2c1	1%	-2.2%&-0.6%	x	x	39%&45%[activator]	-12%&-9%	2%[18.4 µM]	-31%
CCC(C)[C@H](NC(=O)N1CCCC1)C(=O)O (some centres not stated)	-6%	6.5%	-2%	-1%	x	0%	6%	0%
CNc1c(NS(=O)(=O)c2ccc(OC)c(Cl)c2)c(=O)oc2ccccc12	5%	x	u	-27%[46.1 µM]	-13%	x	10%	-6%

Screens (PubChem BioAssay)
